Screening results (PubChem)
Cruzain inh Det – qHTS Assay for Promiscuous and Specific Inhibitors of Cruzain (with detergent) | purified cruzain, Z-FR-AMC fluorescence, 0.01% Triton | Potency, µM, without a hit: max response, negative = inhibition, hits mostly inhibitors | 0.43% of 200,000 active | AID 1478, 2009;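 note: plate controls were neutral wells for no effect and buffer without enzyme for full effect; nearly all actives have a fitted effect of over 40% in size; top concentration of the series not given in the record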
Target sequence (P25779 123-467 limits assumed): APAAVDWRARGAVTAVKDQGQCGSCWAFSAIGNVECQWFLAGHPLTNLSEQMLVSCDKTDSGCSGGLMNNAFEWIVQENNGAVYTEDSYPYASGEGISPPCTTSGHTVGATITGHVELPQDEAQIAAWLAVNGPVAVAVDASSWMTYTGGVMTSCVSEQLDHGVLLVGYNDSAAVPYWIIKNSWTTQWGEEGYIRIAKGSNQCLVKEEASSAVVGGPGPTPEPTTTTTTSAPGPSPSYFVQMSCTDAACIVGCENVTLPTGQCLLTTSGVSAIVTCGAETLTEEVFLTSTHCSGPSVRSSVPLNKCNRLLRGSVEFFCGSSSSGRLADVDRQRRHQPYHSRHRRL
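Enzyme 1.5 nM, Z-FR-AMC 2 uM, NaOAc 100 mM pH 5.5, DTT 5 mM, Triton X-100 0.01%; 15 min RT compound preincubation; kinetic ex360/em450, 60 s delta.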
Cruzain noTriton – qHTS Assay for Promiscuous and Specific Inhibitors of Cruzain (without detergent). Potency, µM, for the others: max response, negative = inhibition, actives largely listed as inhibitors. purified cruzain, Z-FR-AMC fluorescence, no detergent. AID 1476, 2009. Cruzipain (Trypanosoma cruzi), P25779. 2.3% of 200,000 active;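 note: plate controls were enzyme without inhibitor for no effect and buffer without enzyme for full effect; nearly all actives have a fitted effect of over 40% in size; top concentration of the series not given in the record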
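Detergent-free condition (0.00005% Triton X-100) in acetate buffer pH 5.5 with DTT. 1.5 nM enzyme and compound were pre-mixed 15 min, then 2 uM Z-FR-AMC substrate added; reaction progress from fluorescence change between first and third reads (60 s).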
2A StopGo – High Throughput Screening for Foot and Mouth Disease Virus Antivirals. human cells with a luciferase reporter of 2A StopGo recoding; control for the full effect not named in the record. Potency, µM (highest dose often 57.9 µM), inactives show at the highest dose signal change, negative = less light. 1.2% of 410,000 active; active = well fitted falling curve with a large enough effect; inconclusive = small, poorly fitted or top-dose-only effect; inactive = no such curve, though single readings can be large or run the other way; tested in HEK293T cells; note: nearly all actives have a fitted effect of over 45% in size; luciferase light after 4 h
An asterisk follows results filed as active; ? = inconclusive; & = joins results of further samples; [ ] = dose if it differs, or a comment. Unless noted, calls come from the whole dose curve; as a rule, active = well fitted curve in the direction sought with a large enough effect; inconclusive = small, poorly fitted or top-dose-only effect, or another doubt; inactive = no such curve, though single readings can be large; an effect the other way counts as inactive or inconclusive. Unless noted, % is set by controls: 0 for no effect and ±100 for the full control effect; potency is the fitted concentration of half-maximal effect. An excerpt; the hit share may differ from the screen's.

No.	Molecule	Cruzain inh Det	Cruzain noTriton	2A StopGo
1	COc1ccc(Oc2ncc3nc(CCc4ccccc4)c(=O)n(C4CC4)c3n2)cc1	1.9%	-0.1%	9.3%
2	N[C@H](C(=O)O)c1ccc(O)c(C(=O)O)c1	-4.2%	4.5%	0.6%&-17.4%
3	COCCn1c(=O)c(-c2cn(C)c3ccccc23)nc2cncnc21	-1.2%	-4.2%	-8.7%
4	COCCn1c(=O)c(-c2cccc(C#N)c2)nc2cnc(Oc3ccc(OC)cc3)nc21	-0.4%	16.4%	-16.9%
5	COCCNc1cc(-c2ccccc2C(F)(F)F)ncn1	5.4%	3.5%	55.2%[activator]
6	COCC(=O)N1CCC2(CC1)CN(c1ccncc1)C2	0.6%	1.7%	-11.2%
7	N#CCCn1c(=O)c(-c2ccccc2)nc2cnc(Oc3ccccc3)nc21	-8.5%	?	0.8%
8	CN(C)c1ncc2nc(-c3cc(F)cc(F)c3)c(=O)n(Cc3cccs3)c2n1	-0.2%	-0.4%	-2.6%
9	CN(C)c1ncc2nc(-c3cc(F)cc(F)c3)c(=O)n(Cc3ccc(F)cc3)c2n1	3.8%	4.3%	0.5%
10	O=C(Nc1cccc(F)c1)N1CC2(CCN(C(=O)c3cc(C(F)(F)F)cc(C(F)(F)F)c3)CC2)C1	5.1%	1.7%	-10.4%
11	O=C/C=C/c1ccc(O)cc1	-2.2%	-4.0%	-0.9%
12	CN=C1N[C@H](c2ccccc2)N(c2ccccc2)S1	0.5%	10.8%	52.4%[activator]
13	CN1CCN(c2ncnc3ccc(-c4ccc(C(=O)N(C)C)cc4)cc23)CC1	1.9%	-2.1%	-1.0%
14	COc1cc2c(cc1OC)[C@@H]1C(=O)c3ccc4c(c3O[C@@H]1CO2)C=CC(C)(C)O4	-6.0%	?	?
15	COCCn1c(=O)c(-c2cn(C)c3ccccc23)nc2cnc(Oc3cccc(Cl)c3)nc21	1.0%	14.1%	-17.4%
16	COc1ccccc1-c1nc(NCc2cccnc2)c2ccccc2n1	2.8%	-10.4%	-9.1%
17	COc1ccc(NC(=O)N2CCC3(CC2)CCN(C(=O)c2csnn2)CC3)cc1	-2.0%	-2.8%	-12.8%
18	CCCCCCCCCCOCCC(=O)O	4.0%	-0.2%	-8.2%[6.7 µM]
19	CN(C)c1ncc2nc(-c3ccccc3)c(=O)n(CCc3ccccc3)c2n1	3.5%	-5.0%	-11.6%
20	c1cnc(N2CCC3(CCNCC3)CC2)nc1	-4.1%	-4.5%	-14.3%
21	N#Cc1ccccc1-c1ccc2ncnc(NCc3cccnc3)c2c1	2.9%	-5.0%	?
22	C[C@H]1C(O)[C@@]23CCC4C5(C=[N+](CCO)C[C@]4(C)CCC5)C2C[C@@H]1C3 (some centres not stated)	1.9%	-0.5%	0.0%
23	COc1cccc(Cn2c(=O)c(-c3ccc(Cl)cc3)nc3cnc(OC)nc32)c1	3.1%	-5.9%	-0.3%
24	Cn1c(=O)c(-c2cccs2)nc2cnc(N3CCNCC3)nc21	-4.8%	4.2%	-0.3%
25	COCCn1c(=O)c(-c2ccccc2)nc2cnc(Oc3ccc(OC)cc3)nc21	-1.0%	26.6%	?
26	CC(=O)OC[C@@]12C(=O)[C@@H](O)[C@@H](C)[C@]3(C[C@@H](c4ccoc4)O[C@@H]3OC(C)=O)[C@H]1CCC[C@]21CO1	3.2%	-7.0%	-12.3%
27	COc1cccc(Nc2ncc3nc(C)c(=O)n(CCC#N)c3n2)c1	-4.4%	-7.2%	-6.1%
28	Cc1noc(C)c1-c1nc(NC2CCNCC2)c2ccccc2n1	5.0%	2.9%	2.3%
29	O=c1c(-c2cccs2)nc2cnc(Oc3cccc(Cl)c3)nc2n1C1CC1	0.9%	3.1%	-29.4%
30	COc1ccc(C(=O)N2CCC[C@@]3(CCN(c4ccncc4)C3)C2)cc1	-0.9%	0.9%	-6.1%
31	COCCn1c(=O)c(-c2ccc(Cl)cc2)nc2cnc(N3CCOCC3)nc21	1.6%	4.1%	-14.3%
32	COC(=O)CC1[C@@]2(C)C[C@@]34OC5(C)OC6(CC[C@@]7(C)C(c8ccoc8)OC(=O)C(C(C)=O)C7[C@]6(O5)C(O)[C@@]3(O)C2O)[C@]14C (some centres not stated)	4.3%	?	-11.6%
33	O=C(c1cccc(F)c1)N1CCC2(CCN(Cc3ccccc3)CC2)CC1	-0.5%	-3.7%	-4.8%
34	COC1=C[C@@H](C)C2CC3OC(=O)C[C@H]4C(C)=C(OC)C(=O)C([C@@]2(C)C1=O)[C@@]34C (some centres not stated)	3.2%	0.9%	-3.4%
35	CS(=O)(=O)N1CCC[C@@]2(CCN(c3ncccn3)C2)C1	3.0%	-0.1%	0.1%
36	CC1=CC(=O)c2c(O)cccc2C1=O	-4.9%&-28.0%	-5.2%&-23.6%	8.91µM*
37	COCCn1c(=O)cnc2cnc(N3CCN(C)CC3)nc21	-14.4%	?	-10.6%
38	OCC(O)Cc1ccc2c(c1)OCO2 (configuration not stated)	-2.9%	-8.8%	-4.9%
39	CN(C)c1ncc2nc(-c3cccs3)c(=O)n(C3CC3)c2n1	4.2%	1.9%	1.8%
40	CS(=O)(=O)Nc1cccc(-c2cc(Nc3ccccc3)ncn2)c1	-11.4%	1.9%	37.6%[activator]
41	N#Cc1cccc(-c2nc3cnc(Oc4cccc(Cl)c4)nc3n(C3CC3)c2=O)c1	0.7%	-2.5%	-24.9%
42	CC(=O)C1(C)CC2(CC(C)(C)OC2=O)C(=O)O1 (configuration not stated)	2.6%	-1.6%	-7.1%
43	COc1ccc(-c2nc3cnc(OC)nc3n(Cc3cccc(OC)c3)c2=O)cc1	2.0%	-4.0%	-4.3%
44	COC(=O)C1OC(=O)C2O[C@@]23[C@]2(C)C(OC(C)=O)CC4C(C)(C)C(=O)CC[C@]4(C)C2CC[C@@]13C (some centres not stated)	-1.1%	?	-7.4%
45	CN1CCN(c2ncc3nc(-c4ccccc4)c(=O)n(CCc4ccccc4)c3n2)CC1	-26.3%	?	-26.4%
46	COc1cc2c(cc1OC)C(C(C(=O)N(CCc1ccc(OC)c(OC)c1OC)CCc1ccc(OC)c(OC)c1OC)c1ccccc1)=NCC2 (configuration not stated)	1.0%	?	-21.7%
47	C=C1CCC(C2CC(=O)OC2=O)C(=O)CCC2C1CC2(C)C (configuration not stated)	2.0%	?	2.0%
48	CNc1ccnc(-c2cccc(NS(C)(=O)=O)c2)n1	1.8%	2.3%	8.8%
49	COc1ncc2nc(-c3cccc(C#N)c3)c(=O)n(CCC#N)c2n1	-7.9%	-12.9%	-1.3%
50	O=C(c1cnccn1)N1CCC[C@@]2(CCN(Cc3nccs3)C2)C1	-0.4%	-3.8%	-12.5%
51	COC(=O)C1C(=O)C(C(=O)/C=C/c2ccco2)C(=O)CC1(C)C (configuration not stated)	-4.3%	-17.9%	-13.3%
52	COc1ccc2[nH]cc(CCNc3ncnc4ccc(-c5ccccc5OC)cc34)c2c1	-5.4%	?	?
53	COC(=O)N1CCC2(CC1)CN(c1ccc(-c3ccccc3)cc1)C2	-1.1%	-4.3%	-9.2%
54	O=C(c1cnccn1)N1CCC[C@@]2(CCN(c3ncccn3)C2)C1	-0.3%	-1.2%	-12.8%
55	CN(C)c1ncc2nc(-c3cc(F)cc(F)c3)c(=O)n(-c3ccccc3)c2n1	3.2%	1.9%	-8.5%
56	CCCc1c(OCCCOc2ccc(OCC(=O)O)cc2)ccc(CC=O)c1O	-6.7%	?	-16.1%
57	O=C(Nc1ccccc1)N1CCCC2(CCN(C(=O)c3cccc(F)c3)CC2)C1	0.8%	3.0%	18.9%
58	O=c1cnc2cnc(N3CCOCC3)nc2n1Cc1cccs1	-6.5%	-6.7%	-21.5%
59	Cc1ccc(N=CN(C)C=Nc2ccc(C)cc2C)c(C)c1	0.1%	3.2%	-9.6%
60	Cn1cccc1C(=O)N1CCC2(CCN(Cc3nccs3)CC2)CC1	5.3%	-1.2%	-3.0%

Further compounds
No.	Molecule	Cruzain inh Det	Cruzain noTriton	2A StopGo
61	COc1ccccc1CNc1ccnc(-c2ccoc2)n1	-1.9%	-1.6%	-7.1%
62	CN(Cc1ccco1)c1ncnc2ccc(-c3cccc(C#N)c3)cc12	-5.4%	-3.2%	-18.3%
63	COc1ccc(-c2nc3cnc(N4CCNCC4)nc3n(Cc3ccc(F)cc3)c2=O)cc1	4.5%	8.6%	-9.3%
64	CC(C1OC(C)(C)C(O)C1O)C1CC[C@@]2(C)C3=CCC4C(C)(C)C(=O)CC[C@]4(C)C3CC[C@@]12C (some centres not stated)	2.7%	27.4%	-13.0%
65	COc1ccc(-c2nc3cnc(OC)nc3n(CCc3ccccc3)c2=O)cc1	3.6%	5.5%	-13.8%
66	COC[C@]12CN(C=O)C3C4C(OC)C1[C@@]3(C1CC3(O)C(OC)C(O)C4(OC(C)=O)C1C3OC(=O)c1ccccc1)[C@@H](OC)CC2O (some centres not stated)	0.5%	-9.8%	-3.8%
67	OCC1O[C@@H](OC2C(O)C(CO)O[C@@]2(CO)O[C@@H]2OC(CO)C(O)C(O)C2O)C(O)C(O)C1O (some centres not stated)	0.1%	-5.5%	-10.1%
68	CC(=O)NCCNc1ncncc1-c1ccccc1C(F)(F)F	5.9%	2.3%	-14.9%
69	O=C(c1cnccn1)N1CCC2(CC1)CCN(c1ccncc1)CC2	1.1%	12.6%	-12.3%
70	N#C/C(=C(/N)Sc1ccc(N)cc1)c1ccccc1C(F)(F)F	-12.7%	1.7%	28.7%
71	Cc1ccccc1-c1ccc2ncnc(N(C)C)c2c1	-2.1%	-2.5%	-18.5%
72	O=C(O)CC/C=C\CC[C@H]1[C@@H](N2CCCCC2)[C@@H](O)C[C@@H]1OCc1ccc(-c2ccccc2)cc1	-4.7%	?	-8.4%
73	CC1CCC2(OC1)OC1CC3C4CCC5CC(O)CCC5(C)C4=CCC3(C)C1C2C (configuration not stated)	-0.2%	-9.1%	1.4%
74	COc1ccccc1CNc1ncnc2ccc(-c3ccc(C(=O)N(C)C)cc3)cc12	-2.3%	5.6%	-2.7%
75	COc1cc(C[C@H]2C(=O)OC[C@@H]2Cc2ccc(OC)c(OC)c2)ccc1O	-0.1%	11.5%	?
76	O=C(c1csnn1)N1CCC[C@@]2(CCN(c3ccccn3)C2)C1	1.1%	4.4%	-19.6%
77	C=C1C(=O)OC2CC1C(OC(C)=O)CC(C)=CCCC(C)=CCC[C@@]2(C)O (some centres not stated)	1.1%	?	?
78	CC(=O)Oc1cccc(C(=O)O)c1OC(C)=O	1.1%	-5.5%	-28.1%
79	COc1ncc2nc(-c3cc(F)cc(F)c3)c(=O)n(CCc3ccccc3)c2n1	1.2%	-3.4%	-19.2%
80	COc1ccccc1-c1cc(NCc2cccnc2)ncn1	?	-19.4%	9.9%
81	COc1ccc(C(=O)N2CCC3(CCN(C(=O)Nc4ccccc4)CC3)CC2)cc1	6.0%	12.1%	-15.4%
82	Cn1c(=O)c(CCc2ccccc2)nc2cnc(N3CCOCC3)nc21	-2.6%	-1.5%	29.9%
83	CN(C)c1ncc2nc(-c3ccc(Cl)cc3)c(=O)n(CCC#N)c2n1	2.2%	3.8%	-4.7%
84	COCCn1c(=O)c(-c2cccs2)nc2cnc(N3CCN(C)CC3)nc21	-4.6%	2.7%	-1.1%
85	O=S(=O)(c1ccccc1)N1CCC2(CCN(Cc3nccs3)CC2)CC1	-1.3%	-5.3%	2.4%
86	O=c1c(O)cc(C2Oc3cc(O)cc(O)c3CC2O)cc2c(C3Oc4cc(O)cc(O)c4CC3O)cc(O)c(O)c12 (configuration not stated)	25.1µM*	-22.3%	-9.3%
87	CC(=O)OC[C@@]1(O)C[C@]23CCC4c5ccoc5CC[C@@]4(C)C2CCC1C3 (some centres not stated)	-4.0%	23.1%	-13.4%
88	COCC(=O)N1CCC2(CC1)CN(Cc1cc(C(F)(F)F)cc(C(F)(F)F)c1)C2	3.4%	-4.5%	-0.9%
89	O=c1cnc2cncnc2n1Cc1ccccc1	0.0%	-7.3%	-9.8%
90	O=C(O)/C=C/C=C/c1ccccc1	-6.7%	-13.5%	?
91	COCC(=O)N1CCC2(CC1)CN(Cc1ccc(C#N)cc1)C2	2.1%	-15.6%	3.5%
92	O=c1c(-c2cc(F)cc(F)c2)nc2cnc(N3CCOCC3)nc2n1Cc1cccs1	4.2%	4.4%	-10.2%
93	CCC(CCC(C)C1CCC2C3CC=C4CC(OC(C)=O)CC[C@@]4(C)C3CC[C@@]12C)C(C)C (some centres not stated)	3.5%	-5.3%	-13.0%
